AF4-AF9 inh: blocks AF4 peptide binding to human AF9 | P42568 | AlphaScreen, biotin-AF4 peptide binding to FLAG-AF9 | inhibition, % at 10 µM | hit rate 0.47% among 350,000 | AID 651704;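 active = every replicate reaching a set inhibition limit, whatever the replicate mean, cut at about 25% in these data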;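 also: 0% = plate neutral control median and 100% = total signal loss; the record names both 10 and 1 µM as test concentration; the first replicate is given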
Target sequence (P42568 whole entry, looked up): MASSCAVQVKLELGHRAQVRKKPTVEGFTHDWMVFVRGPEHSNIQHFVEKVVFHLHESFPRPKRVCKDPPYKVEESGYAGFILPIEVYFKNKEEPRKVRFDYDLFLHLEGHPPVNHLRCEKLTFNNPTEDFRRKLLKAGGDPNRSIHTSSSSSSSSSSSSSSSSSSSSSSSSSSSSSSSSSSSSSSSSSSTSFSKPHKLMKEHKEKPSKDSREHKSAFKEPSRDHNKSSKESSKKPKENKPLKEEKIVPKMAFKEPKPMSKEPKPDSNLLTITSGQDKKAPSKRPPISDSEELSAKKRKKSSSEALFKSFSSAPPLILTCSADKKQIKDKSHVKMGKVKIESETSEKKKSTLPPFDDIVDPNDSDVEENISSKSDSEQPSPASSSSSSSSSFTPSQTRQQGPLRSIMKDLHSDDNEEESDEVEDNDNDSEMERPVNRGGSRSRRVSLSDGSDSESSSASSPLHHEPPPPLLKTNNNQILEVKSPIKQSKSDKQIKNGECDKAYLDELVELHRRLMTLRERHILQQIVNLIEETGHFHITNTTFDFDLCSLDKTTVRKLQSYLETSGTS
Ecoli rRNA inh: inhibitors of bacterial rRNA selective over humanized ribosomes; E. coli WT GFP vs humanized-ribosome RFP mutants, fluorescence, 24 h; active compounds read low; DMSO median 0, no signal -100; hit rate 1.6% among 350,000; GFP signal change (wild-type ribosome), % (concentration not given with the values);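 active = significant combined selectivity score with lowered wild-type GFP, culture density cut under 30%, mutant RFP and density less affected; inactive = any of these conditions unmet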; also: one replicate is shown; some compounds called inactive have numbers as strong as hits
Ecoli rRNA inh OD600: recorded beside Ecoli rRNA inh, whose call it bears; OD600 change, %; measured here: OD600 growth;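 optical density of the mix in the first replicate; 0 = DMSO median and -100 = no signal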
Ecoli rRNA inh RFP: second read-out of Ecoli rRNA inh, no call of its own (marks repeat the call); RFP signal change, %; measured here: RFP humanized mutant strains;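 first replicate; 0 = DMSO median and -100 = no signal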
* marks the source's active call; other numbers are inactive results.

item	AF4-AF9 inh	Ecoli rRNA inh	Ecoli rRNA inh OD600	Ecoli rRNA inh RFP	Molecule
1	10.0	-2	-1	-1.0	COc1ccc2c3c(n(C)c2c1)[C@H](CO)N(CC1CC1)CC31CN(C(=O)c2ccc3c(c2)OCO3)C1
2	-1.1	-3	-9	-3.6	C[C@H](CO)N1C[C@H](C)[C@H](CN(C)C(=O)NC2CCCC2)Oc2ncc(C3=CCCCC3)cc2C1=O
3	-1.0	0	18	-0.6	Cc1ccc(S(=O)(=O)Nc2cccc3c2O[C@@H](CN(C)C)[C@H](C)CN([C@H](C)CO)C3=O)cc1
4	-1.8	-2	2	-1.3	COc1ccc(-c2cnc3c(c2)C(=O)N([C@H](C)CO)C[C@H](C)[C@@H](CN(C)C(=O)Cc2ccccc2)O3)cc1
5	-0.3	1	6	-2.7	O=C(O)C[C@@H]1C=C[C@H](NC(=O)Nc2cc(F)ccc2F)[C@@H](CO)O1
6	-0.3	7	7	0.7	COC(=O)[C@@]1(C(C)C)N=C(c2cc(OC)c(OC)c(OC)c2)[C@]2(O1)C(=O)Nc1ccc(F)cc12
7	-6.2	5	15	34	FC(F)(F)c1ccccc1Cc1c(-c2cccc(Cl)c2)nc2c3ccccc3ccn12
8	0.6	7	16	-1.2	CC(=O)c1ccc(S(=O)(=O)N2CCN(C(=O)c3cccc(S(=O)(=O)N4CC(C)OC(C)C4)c3)CC2)cc1 (configuration not stated)
9	-6.9	8	-15	13	COc1ccc(Cl)cc1-c1cc(C(=O)NCc2ccc(F)cc2)[nH]n1
10	1.1	-2	-26	32	Cc1ccc(S(=O)(=O)N[C@@H]2CC[C@H](CC(=O)N3CCC(Cc4ccccc4)CC3)O[C@H]2CO)cc1
11	0.2	7	2	1.6	CCN1C(=O)N[C@@H]2C[C@H](C(=O)N3CCCC3)[C@H](C)[C@H](c3ccccc3)C[C@@H]21
12	-0.7	-2	6	-1.0	C[C@H]1CN([C@@H](C)CO)C(=O)c2cccc(N(C)C)c2O[C@H]1CN(C)C(=O)Nc1ccc2c(c1)OCO2
13	0.3	-3	-19	1.3	O=C(C[C@H]1CC[C@H]2[C@@H](COC[C@@H](O)CN2Cc2ccccc2)O1)N[C@H]1CCN(Cc2ccccc2)C1
14	-3.5	3	6	1.9	C[C@@H]1CN([C@H](C)CO)C(=O)c2cc(-c3ccncc3)cnc2O[C@@H]1CN(C)C(=O)c1ccccc1F
15	-3.8	3	-48	1.9	N#C[C@H]1[C@H](c2ccc(C#Cc3ccccc3F)cc2)[C@H](CO)N1C(=O)C1CC1
16	0.6	3	-8	-1.6	C[C@H]1CN([C@@H](C)CO)C(=O)c2cc(NC(=O)Nc3ccc(F)cc3)ccc2O[C@H]1CN(C)C(=O)NC1CCCCC1
17	-0.6	0	4	-1.7	CN1C(=O)c2cc(NC(=O)NCc3ccccc3)ccc2OC[C@@H]2O[C@@H](CC(=O)O)CC[C@@H]21
18	-2.0	12	-14	-5.3	C[C@H](CO)N1C[C@H](C)[C@H](CN(C)C(=O)Nc2cccc3ccccc23)Oc2ncccc2C1=O
19	-2.0	0	5	-2.9	C[C@@H]1CN([C@H](C)CO)C(=O)c2cc(NC(=O)CCC(F)(F)F)ccc2O[C@H]1CN(C)C(=O)Nc1ccc(F)cc1
20	1.6	0	-3	3.3	C[C@@H]1CN([C@@H](C)CO)C(=O)c2cc(C#CCc3ccccc3)cnc2O[C@H]1CN(C)CC1CCOCC1
21	-1.0	-2	-3	0.1	CO[C@@H](CN(C)S(=O)(=O)c1ccccc1)[C@H](C)CN(C(=O)Nc1ccccc1F)[C@H](C)CO
22	-3.8	-31	-41	-6.5	Cc1cc(-c2nc3cc(F)ccc3s2)ccc1N
23	-11	-11	-8	5.0	C[C@@H]1CN([C@@H](C)CO)C(=O)c2cccc(NS(=O)(=O)c3cccs3)c2O[C@@H]1CN(C)S(=O)(=O)c1cccs1
24	-6.1	2	12	-1.2	O=C(O)C[C@@H]1CC[C@H](NC(=O)c2ccccc2F)[C@H](CO)O1
25	-1.5	7	15	-1.4	CC(C)NC(=O)N(C)C[C@@H]1Oc2ccc(NC(=O)Cn3cnnn3)cc2CC(=O)N([C@@H](C)CO)C[C@H]1C

Some of these compounds in order of the Ecoli rRNA inh value, largest number first.
item	AF4-AF9 inh	Ecoli rRNA inh	Ecoli rRNA inh OD600	Ecoli rRNA inh RFP	Molecule
3	-1.0	0	18	-0.6	Cc1ccc(S(=O)(=O)Nc2cccc3c2O[C@@H](CN(C)C)[C@H](C)CN([C@H](C)CO)C3=O)cc1
4	-1.8	-2	2	-1.3	COc1ccc(-c2cnc3c(c2)C(=O)N([C@H](C)CO)C[C@H](C)[C@@H](CN(C)C(=O)Cc2ccccc2)O3)cc1
13	0.3	-3	-19	1.3	O=C(C[C@H]1CC[C@H]2[C@@H](COC[C@@H](O)CN2Cc2ccccc2)O1)N[C@H]1CCN(Cc2ccccc2)C1
23	-11	-11	-8	5.0	C[C@@H]1CN([C@@H](C)CO)C(=O)c2cccc(NS(=O)(=O)c3cccs3)c2O[C@@H]1CN(C)S(=O)(=O)c1cccs1

Quoted at random: three records from the list
item	AF4-AF9 inh	Ecoli rRNA inh	Ecoli rRNA inh OD600	Ecoli rRNA inh RFP	Molecule
13	0.3	-3	-19	1.3	O=C(C[C@H]1CC[C@H]2[C@@H](COC[C@@H](O)CN2Cc2ccccc2)O1)N[C@H]1CCN(Cc2ccccc2)C1
14	-3.5	3	6	1.9	C[C@@H]1CN([C@H](C)CO)C(=O)c2cc(-c3ccncc3)cnc2O[C@@H]1CN(C)C(=O)c1ccccc1F
11	0.2	7	2	1.6	CCN1C(=O)N[C@@H]2C[C@H](C(=O)N3CCCC3)[C@H](C)[C@H](c3ccccc3)C[C@@H]21

(further entries)
item	AF4-AF9 inh	Ecoli rRNA inh	Ecoli rRNA inh OD600	Ecoli rRNA inh RFP	Molecule
26	-4.8	3	0	-1.7	C[C@@H]1CN([C@@H](C)CO)C(=O)c2cccc(NS(=O)(=O)c3cn(C)cn3)c2O[C@H]1CN(C)CC1CC1
27	1.9	1	2	0.1	N#C[C@@H]1[C@@H](c2ccc(/C=C/c3ccccc3)cc2)[C@@H](CO)N1C(=O)C1CCC1
28	9.7	-25	-44	-3.0	C[C@@H]1CCCCO[C@H](CN(C)CC2CCCCC2)[C@H](C)CN([C@@H](C)CO)C(=O)c2cc(NC(=O)c3ccccc3)ccc2O1
29	0.1	-2	-4	1.6	COc1ccc2c3c(n(C)c2c1)[C@H](CO)N(C(=O)C1CCCC1)CC31CCN(C(=O)CC2CC2)CC1
30	39*	0	-20	20	C[C@@H]1CN([C@@H](C)CO)C(=O)c2c(c3ccccc3n2C)-c2ccccc2CO[C@H]1CN(C)Cc1ccc2c(c1)OCCN2C
31	-1.0	-5	-17	-2.6	CCc1nc2c(OCC(=O)c3ccc(F)cc3)cccn2c1N(C)C(=O)c1cccs1
32	2.1	-2	-1	-0.7	CO[C@@H]1CN(C)C(=O)c2cc(NS(=O)(=O)CC(F)(F)F)ccc2OC[C@H](C)N(Cc2cccnc2)C[C@H]1C
33	-0.3	4	9	1.6	C[C@@H]1CN([C@H](C)CO)C(=O)c2cc(NC(=O)CCN3CCOCC3)ccc2O[C@@H]1CN(C)C
34	-2.8	6	19	-3.9	C[C@H]1CN([C@@H](C)CO)C(=O)c2cc(Br)cnc2O[C@@H]1CN(C)C(=O)c1ccccc1
35	-0.4	-11	8	-1.3	O=C(NCc1cccs1)c1ccc2sc(C3=C[C@@H](O)[C@@H](O)[C@@H](CO)O3)nc2c1
36	0.4	-6	-52	23	O=C(c1ccccc1)N1CC2(C1)[C@H](c1ccccc1)[C@H](CO)N2Cc1cc(F)ccc1F
37	-2.5	-2	7	-3.7	Cc1cn([C@H]2C[C@H](O)[C@@H](CCC(=O)NCCCn3ccnc3)O2)c(=O)[nH]c1=O
38	10	2	-7	19	C[C@@H]1CCCCO[C@@H](CN(C)C(=O)Nc2cccc3ccccc23)[C@H](C)CN([C@H](C)CO)C(=O)c2cc(NC(=O)CCCN(C)C)ccc2O1
39	6.5	7	-28	20	CC(C)NC[C@H]1[C@@H](c2ccc(C3=CCCCC3)cc2)[C@@H](CO)N1C(=O)NC(C)C
40	-1.0	-6	1	-0.9	COc1ccc(S(=O)(=O)N(C)C[C@@H]2Oc3ccc(NC(=O)CCCCCC(=O)Nc4ccccc4N)cc3C(=O)N([C@H](C)CO)C[C@H]2C)cc1
41	1.0	-1	-10	-0.7	COc1ccc(NC(=O)N[C@@H]2CC[C@H](CCNS(=O)(=O)c3ccccc3F)O[C@H]2CO)cc1
42	-2.1	0	1	0.8	CCC(=O)N[C@@H]1C=C[C@H](CC(=O)NCC2CCCCC2)O[C@H]1CO
43	-0.7	1	2	-0.6	O=C(C[C@H]1C=C[C@H](NC(=O)c2ccccn2)[C@@H](CO)O1)NCc1cccc(F)c1
44	5.7	24	15	2.3	CC1(C(=O)NS(=O)(=O)C2CC2)CCN(C(=O)CSc2ccccc2)C1 (configuration not stated)
45	-1.9	1	8	-1.9	O=C([C@@H]1[C@@H](CO)[C@@H]2Cn3c(ccc(-c4ccc(F)cc4)c3=O)[C@H]1N2)N1CCCCC1
46	-2.1	2	4	-1.4	COCC(=O)Nc1ccc2c(c1)C(=O)N(C)C[C@H](OC)[C@@H](C)CN(C(=O)COC)[C@H](C)CO2
47	4.1	4	2	2.5	C[C@H](CO)N1C[C@H](C)[C@@H](CN(C)S(=O)(=O)c2ccc(Cl)cc2)OCCCC[C@H](C)Oc2ccc(NC(=O)C3CCCCC3)cc2C1=O
48	-3.5	3	5	-2.8	C[C@@H]1CN([C@H](C)CO)S(=O)(=O)c2ccc(C#C[C@@H](C)O)cc2O[C@@H]1CN(C)C
49	-1.1	2	-7	0.9	Cc1ccc(S(=O)(=O)N(C)C[C@@H]2Oc3c(NC(=O)Nc4ccc(C(F)(F)F)cc4)cccc3C(=O)N([C@H](C)CO)C[C@H]2C)cc1
50	1.4	-2	11	5.1	Cc1ccccc1-c1ccc([C@H]2[C@@H](CO)N3CCCCN(S(=O)(=O)c4cn(C)cn4)C[C@H]23)cc1
51	0.2	-8	-3	-3.7	O=C(C[C@H]1C[C@H]2c3cc(NC(=O)c4ccc5c(c4)OCO5)ccc3O[C@H]2[C@H](CO)O1)NCc1cccnc1
52	0.9	3	5	0.5	C[C@@H](NC(=O)C[C@H]1C=C[C@@H](NC(=O)CN2CCOCC2)[C@@H](CO)O1)c1ccccc1
53	5.5	-4	-6	1.0	COCC(=O)Nc1ccc2c(c1)OC[C@@H](C)N(Cc1cccc(F)c1)C[C@@H](C)[C@H](OC)CN(C)C2=O
54	-5.0	5	12	3.0	CCC(=O)N1CCCCN2[C@H](CO)[C@H](c3ccc(-c4cccnc4)cc3)[C@H]2C1
55	4.5	0	-1	1.2	CO[C@@H]1CN(C)C(=O)c2cc(NC(=O)C3CC3)ccc2OC[C@H](C)N(C(=O)c2ccncc2)C[C@H]1C
56	-1.8	1	2	-1.2	COc1ccc(S(=O)(=O)Nc2cccc3c2O[C@H](CN(C)Cc2ccc(-c4ccccc4)cc2)[C@H](C)CN([C@H](C)CO)C3=O)cc1
57	-0.2	-1	3	-1.3	C[C@@H]1CN([C@H](C)CO)C(=O)c2cccc(NC(=O)c3ccc(-c4nccs4)cc3)c2O[C@@H]1CN(C)S(C)(=O)=O
58	-1.5	0	7	1.1	C[C@H](CO)N1C[C@H](C)[C@H](CN(C)C)Oc2ccc(NC(=O)Nc3cccc4ccccc34)cc2C1=O
59	-1.1	8	18	0.0	Nc1ccn([C@@H]2O[C@H](C(=O)N3CCCN(Cc4cccs4)CC3)[C@@H](O)[C@H]2O)c(=O)n1
60	4.4	-2	-6	5.1	CCC(=O)N1C[C@H](C)[C@@H](OC)CN(C)C(=O)c2ccc(NC(=O)Nc3ccc(Cl)cc3)cc2OC[C@@H]1C
61	4.6	-5	-10	3.0	OC[C@@H]1[C@@H](c2ccccc2)C2(CN(CC3CC3)C2)N1Cc1ccc(F)cc1
62	0.4	5	-1	-1.9	C[C@@H]1CN([C@H](C)CO)C(=O)c2cc(C#CC3(O)CCCC3)cnc2O[C@H]1CN(C)Cc1ccccc1
63	-0.2	-5	-15	4.2	CCCC(=O)Nc1ccc2c(c1)C(=O)N(C)C[C@H](OC)[C@@H](C)CN(Cc1ccc(-c3ccccn3)cc1)[C@H](C)CO2
64	2.0	-2	11	4.5	CC(C)C#Cc1ccc([C@@H]2[C@@H](CO)N3C(=O)CN(C(=O)NC4CCCCC4)C[C@H]23)cc1
65	5.2	3	1	1.9	C/C=C/c1ccc([C@@H]2[C@H](CO)N(C(=O)CC)C23CN(CCC(F)(F)F)C3)cc1
66	-2.3	4	-2	-2.5	O=C(C[C@H]1C=C[C@H](NC(=O)C2CCOCC2)[C@@H](CO)O1)NCc1ccccc1Cl
67	-0.7	-2	-24	12	C[C@@H]1CN([C@H](C)CO)C(=O)c2cccc(NS(=O)(=O)c3cccs3)c2O[C@@H]1CN(C)Cc1ccc(Cl)c(Cl)c1
68	-1.2	-11	-38	1.9	COc1ccc(OC2(C)CCN(Cc3ccc(-c4ccccc4)o3)C2)cc1 (configuration not stated)

A portion of the library; count on the stated rates, not on these rows.
